# VDR inhibitor: inhibitors of human vitamin D receptor | 400,000 compounds, 0.93% hits | Potency, µM, for inactives: max response, negative = inhibition, usual class: inhibitors | VDR-SRC2-3 peptide fluorescence polarization, 2 h | P11473 | AID 504847; active = well fitted inhibition curve with a large enough effect; inconclusive = small, poorly fitted or top-dose-only effect, or another doubt; inactive = no such curve, though single readings can be large or run the other way; also: series mostly up to about 120 µM
# Target sequence (P11473 whole entry, looked up): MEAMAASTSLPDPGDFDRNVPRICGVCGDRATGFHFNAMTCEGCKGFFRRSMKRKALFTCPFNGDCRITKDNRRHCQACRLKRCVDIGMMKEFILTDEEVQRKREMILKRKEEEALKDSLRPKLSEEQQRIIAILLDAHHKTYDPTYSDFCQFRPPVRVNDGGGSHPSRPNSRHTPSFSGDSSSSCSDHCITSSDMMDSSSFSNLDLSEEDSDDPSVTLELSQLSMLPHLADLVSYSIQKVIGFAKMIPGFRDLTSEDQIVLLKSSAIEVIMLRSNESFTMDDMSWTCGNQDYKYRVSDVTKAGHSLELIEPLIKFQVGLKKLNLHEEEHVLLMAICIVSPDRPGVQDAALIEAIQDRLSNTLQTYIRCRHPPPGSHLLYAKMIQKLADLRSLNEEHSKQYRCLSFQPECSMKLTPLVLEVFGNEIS
#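 Fluorescence polarization assay measuring small-molecule disruption of VDR binding to the coregulator peptide SRC2-3. Compounds were pin-transferred (23 nl) into the reagent mix and incubated 2 h at room temperature before reading.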
# * marks the source's active call; other numbers are inactive results; ? = inconclusive; & = joins results of further samples. % is scaled to controls: 0 for no effect and ±100 for the full control effect; potency is read from the fitted curve at half-maximal effect.
smiles | VDR inhibitor
CCCCC(CC)C(=O)Nc1cccc(SC)c1 (stereo unspecified) | 4.4%
Cc1c(CNC2CCC(C)CC2)c(C(=O)O)c(C)n1Cc1ccccc1F (stereo unspecified) | 2.9%
CSCCC(NC(N)=O)C(=O)NCc1ccccc1Cl (stereo unspecified) | 17.6%
CCNc1nc(OC)nc(Oc2ccc(=O)[nH]n2)n1 | -4.0%
CC(Nc1cc(N2CCN(S(=O)(=O)N(C)C)CC2)ccc1[N+](=O)[O-])c1ccccc1 (stereo unspecified) | -3.5%
CCCCc1cc(=O)oc2cc(OCC(=O)NCCN3CCOCC3)ccc12 | 15.7%
COCCn1c(C)cc(/C=C(\C#N)C(=O)OCC(=O)N(C)c2c(N)n(Cc3ccccc3)c(=O)[nH]c2=O)c1C | -5.3%
CO/N=C(/CNC(=O)c1ccccc1Cl)c1ccc(Cl)cc1 | -10.6%
CCOC(=O)/C(=N/Nc1ccc(OC)cc1)Sc1nnc(CCc2ccccc2)n1-c1ccccc1 | 4.3%
CNS(=O)(=O)c1ccc(NC(=O)C2CC(=O)N(c3ccc(Cl)cc3)C2)cc1 (stereo unspecified) | -16.7%
O=C(CN1CCOCC1)Nc1ccc(Cl)c(Cl)c1 | 1.3%
COC(=O)c1ccc2c(=O)[nH]c(CCl)nc2c1 | -2.6%
COc1ccc(-c2ccc3c(N)c(C(=O)NC(C)C)sc3n2)cc1OC | 2.3%
Cc1ccc(S(=O)(=O)N2CCOCC2)cc1NC(=O)COC(=O)c1ccc2c(c1)OCCO2 | 6.4%
Cc1cc(NC(=O)/C(C#N)=C\c2ccc(-c3ccc(SC(F)F)cc3)o2)n(-c2ccccc2)n1 | -11.5%
CCCCN(Cc1ccccc1)C(=O)C1CCN(Cc2sccc2C)CC1 | -20.5%
CC(C)C(=O)Nc1cccc(-c2nc3ccccc3c(=O)o2)c1 | 13.7%
COc1ccccc1CC(NC(C)=O)C(=O)N1CCN(C(=O)c2cccs2)CC1 (stereo unspecified) | -3.9%
CCC(=O)Nc1ccc(C)cc1-c1nc2ccccc2n(CC(=O)Nc2ccccc2Cl)c1=O | 4.5%
COc1cc(/C=N/Nc2ccc(Cl)cc2)ccc1OC(=O)c1cccs1 | -5.6%
Cc1cccc(C)c1NS(=O)(=O)c1cc2c3c(c1)CCN3C(=O)CC2 | -9.8%
COCCN(C(=O)COc1ccccc1C#N)c1c(N)n(Cc2ccccc2)c(=O)[nH]c1=O | -2.4%
Cc1ccc2c(c1)nnn2C1CCN(S(=O)(=O)c2cccc(S(=O)(=O)N(C)C)c2)CC1 | -5.0%
Cn1c(N)c(C(=O)COC(=O)/C=C/c2cccc(Cl)c2)c(=O)n(C)c1=O | -15.6%
CCC(=O)OCC(=O)Nc1cc(S(=O)(=O)N(C)C)ccc1Cl | 13.0%
CCCCCCC(=O)N(O)C1CC(=O)N(c2ccc(Cl)cc2)C1=O (stereo unspecified) | ?
COc1ccc(CNC(=O)Cn2ncn3c(cc4ccccc43)c2=O)cc1 | -4.5%
CCNC(=S)N1CCCC(C(N)=O)C1 (stereo unspecified) | -2.7%
O=C(Nc1ccc2oc(-c3ccccc3F)nc2c1)c1ccccc1Cl | 0.7%
COc1ccc(OCCOC(=O)c2nc3nccc(C)n3n2)cc1 | 10.9%
Cc1ccc(OCC(=O)Nc2oc(-c3ccccc3)c(-c3ccccc3)c2C#N)cc1 | 5.8%
COc1ccc(C2Nc3ccccc3C(=O)N2c2ccc(C)cc2)cc1Cn1nc(C)c([N+](=O)[O-])c1C (stereo unspecified) | -2.7%
O=C(CSc1ccccc1F)NCCN1C(=O)CSC1=O | 0.4%
COc1ccc(S(=O)(=O)Cc2ccc(C(=O)NCc3ccc(C)cc3)o2)cc1 | -3.8%
CC1CCN(CC(=O)Nc2ccc(Br)cc2[N+](=O)[O-])CC1 | 2.4%
COc1ccc2nc(SC(C(=O)c3ccccc3)c3ccccc3)nc(C)c2c1 (stereo unspecified) | 8.8%
Cc1nc2c(-c3ccccc3)c(C)nn2c(SCC(N)=O)c1Cc1ccccc1 | 6.7%
COc1ccc([N+](=O)[O-])cc1NC(=O)c1ccccc1SC | 0.5%
O=C(CN1C(=O)NC2(CCCC2)C1=O)N1CCN(S(=O)(=O)c2ccc(Cl)cc2)CC1 | 2.1%
COc1ccc(N(CC(C)C)S(=O)(=O)c2nnc(NC(=O)c3cccs3)s2)cc1 | 6.4%
Cc1ccc(C)c(S(=O)(=O)N2CCN(C(=O)/C=C/c3ccco3)CC2)c1 | 89.1µM*
CC(=O)C(=Cc1cn(-c2ccccc2)nc1-c1ccccc1)C(C)=O | ?
O=C(N/N=C/c1ccccn1)C(O)c1ccccc1 (stereo unspecified) | 4.8%
COc1ccc(CCNC(=O)CN2C(=O)c3ccccc3S2(=O)=O)cc1 | 4.2%
O=C(Cn1cc2c(n1)CCCC2)NCc1cccnc1 | 8.4%
COc1cccc(NC(=O)N2CCCc3ccccc32)c1 | 7.6%
COc1ccc(NC(=O)CSc2nnc(C)c(=O)n2N)cc1 | -16.5%
COc1ccc(C2=NN(C(=O)CSc3nc4ncc(Cl)cc4[nH]3)C(c3ccco3)C2)cc1 (stereo unspecified) | 3.5%
COc1ccc(-c2ccc(=O)n(CC(=O)Nc3ccc(N(C)C)cc3)n2)cc1 | 15.8%
COCCNC(=O)c1ccc2c(c1)ncn2-c1ccc(F)c(F)c1 | -0.5%
CN(CC(=O)Nc1ccccc1Br)C(=O)c1ccccc1OCc1ccc(F)cc1 | 1.0%
CN(CCO)c1cc(Sc2nc3ccccc3s2)c2nonc2c1[N+](=O)[O-] | 25.1µM*
COc1ccc(NC(=O)CN2C(=O)COc3ccc(S(=O)(=O)N4CCCCC4)cc32)c(OC)c1 | -1.6%
CCOc1ccc(-n2c(Cc3ccccc3)nnc2SCc2nc(-c3ccccc3C)no2)cc1 | -0.3%
COc1cccc(OCCNC(=O)c2cccc(OC)c2)c1 | 16.9%
Cc1ccccc1-n1nnnc1SC1CCOC1=O (stereo unspecified) | 5.3%
O=C(Nc1ccccc1C(=O)Nc1ccccc1)c1ccccc1Br | -2.8%
CCOC(=O)N1CCN(c2nc(C)c3c(n2)CC(C)CC3=O)CC1 (stereo unspecified) | -5.7%
CCOC(=O)N1CCN(S(=O)(=O)c2ccc(OC)c(C(=O)N3CCCCC3)c2)CC1 | -5.2%
O=C(NCN1C(=O)C2C3C=CC(C3)C2C1=O)Nc1nncs1 (stereo unspecified) | -6.9%

# (next part)
smiles | VDR inhibitor
Cc1c(-c2ccc(F)cc2)[n+](=O)c2c(n1[O-])CCCCC2 | -2.7%
CC1CCC(C(C)C)C(OC(=O)CSc2nnc(N)s2)C1 (stereo unspecified) | -0.1%
COc1ccc(S(=O)(=O)N2CCCCC2)cc1NC(=S)Nc1cccc(Cl)c1C | -24.4%
ONC(=Nc1cccc(C(F)(F)F)c1)c1cccnc1 | -0.6%
CCOC(=O)COc1ccc(S(=O)(=O)N2CCN(c3ccccc3)CC2)cc1 | 9.6%
CCCCCCCCOC(=O)C[N+](C)(C)C/C=C(/C)Cl | -1.1%
CCn1cc(C(=O)N2CCN(c3ccc(OC)cc3)CC2)c(=O)c2cc(S(=O)(=O)N(C)C3CCCCC3)ccc21 | 5.3%
CCC(=O)N(c1ccc(C(=O)O)cc1)c1nc(-c2ccc(OC)cc2)c(C)s1 | -11.7%
CC(O)Cn1c(N2CCCC2)nc2c1c(=O)n(C)c(=O)n2C (stereo unspecified) | 11.0%
CC(C)n1cnc2c(Nc3cccc(Cl)c3)nc(NCCCO)nc21 | 3.5%
COc1ccc(CNc2n[nH]c(NCc3ccc(OC)c(OC)c3)n2)cc1OC | 19.2%
COc1cc2[nH]c(=O)n(CCC(=O)N3CC=C(c4ccccc4)CC3)c(=O)c2cc1OC | -3.5%
COc1ccccc1C(=O)NC(CCSC)C(=O)NC1CC1 (stereo unspecified) | -7.9%
N/C(CSc1nc(-c2ccccc2)c(-c2ccccc2)o1)=N\O | -2.0%
CSc1nc(C)c(C(=O)C[n+]2ccccc2)cc1C#N | 1.8%
Cc1ccc2[nH]c(-c3ccccc3)c(CN3CCCC3)c(=O)c2c1 | 10.1%
CCOc1ccccc1NC(=O)NC1Cc2ccccc2C1 | 0.6%
Cc1ccc(-n2nc(-c3cccs3)cc2C(=O)NCC2CCCO2)c(C)c1 (stereo unspecified) | -13.0%
CCCCN(C(=O)Nc1ccc(Cl)cc1)C1CCN(C(C)=O)CC1 | 15.2%&-10.7%
Cc1ccc(NC(=O)CN(C)C(=O)CCOc2ccccc2C)cc1 | -5.9%
O=C(CSc1nnc(-c2ccccc2Br)n1-c1ccccc1)c1ccc(F)cc1 | 3.2%
O=C(N/N=C/c1ccc(OC(=O)c2ccccc2)c([N+](=O)[O-])c1)c1ccc(O)cc1 | 7.4%
NS(=O)(=O)c1ccc(CCNC(=O)CCc2ccccc2)cc1 | -17.9%
CCN(C=NC1=NN(c2cccc(C(F)(F)F)c2)CC1)CC | -1.0%
Cc1ccc(OCc2cc(C(=O)Nc3ccccc3)oc2C)cc1 | 17.3%
COc1ccccc1OCc1cc(C(=O)N2CC3C[C@@H]4CC2C[C@H](C3)C4)no1 | -5.5%
CN1C(=O)N(C)C2(CC1(C)C)CC(C)(C)N(C)C(=O)N2C | 3.5%
Cc1nc(N)nc(N/N=C/c2c(F)cccc2Cl)n1 | -1.3%
COc1ccc(CNC(=O)c2cccc(S(=O)(=O)N3CCN(c4ccc(F)cc4)CC3)c2)cc1 | -11.9%
Cc1ccc(CN2CCN(CC(=O)O)C2=O)cc1 | 6.0%
C=CCN(CC(=O)NC1CCCC1)C(=O)C(=O)Nc1ccc2c(c1)OCCO2 | 12.8%
O=C1CC2(CCCCC2)Oc2ccc(F)cc21 | -11.8%
O=C(CCN1C(=O)c2ccccc2C1=O)Nc1ccc(-c2cn3ccsc3n2)cc1 | 1.4%
CCCCN(C(=O)c1ccc(S(=O)(=O)N(C)C)cc1)c1ccccc1 | -19.4%
NS(=O)(=O)c1ccc(CCNC(=O)c2ccc(OCC3CCCO3)cc2)cc1 (stereo unspecified) | 15.3%
Cn1cncc1C#Cc1ccc2cc(C3(O)CCCCC3)oc(=O)c2c1 | -12.6%

# Quoted from the listing.
# For VDR inhibitor, CCCCN(C(=O)c1ccc(S(=O)(=O)N(C)C)cc1)c1ccccc1 is listed with -19.4%
# For VDR inhibitor, CN1C(=O)N(C)C2(CC1(C)C)CC(C)(C)N(C)C(=O)N2C is listed with 3.5%
# For VDR inhibitor, Cc1nc(N)nc(N/N=C/c2c(F)cccc2Cl)n1 is listed with -1.3%

# The results go on:
smiles | VDR inhibitor
Cc1ccccc1OCC(=O)Nc1nnc(SCc2cc(=O)n3cccc(C)c3n2)s1 | 15.2%
CC(=O)N1c2c(cc(Br)cc2S(=O)(=O)N2CCN(c3cccc(Cl)c3)CC2)CC1C (stereo unspecified) | -10.3%
COc1ccccc1NC(=O)c1ccccc1NC(=O)c1cc(Cl)ccc1NC(=O)c1ccco1 | 7.0%
COc1ccccc1NC(=O)O/N=C(\N)c1ccccc1 | ?
COc1ccccc1OCC(=O)Nc1c2c(nn1-c1ccc(C)cc1)CS(=O)(=O)C2 | 1.1%
CN(C(=O)CSc1nnc(NC(=O)Nc2ccccc2)s1)c1ccccc1 | -4.5%
O=C(Cc1ccc2c(c1)OCCO2)N1CCN(S(=O)(=O)c2cccc(Cl)c2Cl)CC1 | -9.6%
COc1ccccc1Nc1nc(NCCO)nc(N2CCCC2)n1 | -15.6%
N=c1n(CCN2CCCCC2)c2ccccc2n1CC(O)COc1ccccc1 (stereo unspecified) | 11.9%
Cc1ccc(CN2COc3ccc4c(-c5ccccc5)cc(=O)oc4c3C2)cc1 | 20.8%
CC(=O)OCC(NC(=O)C(Cc1ccccc1)NC(=O)OC(C)(C)C)C1OC(n2cc(C)c(=O)[nH]c2=O)C(OC(C)=O)C1OC(C)=O (stereo unspecified) | -9.4%
CC(C)c1ncc(S(=O)(=O)c2ccc(C(F)(F)F)cn2)c(N)n1 | -8.2%
COc1ccc(C(=O)NC(=S)N2CCC(C)CC2)cc1Br | -3.3%
COc1ccc(C(=O)c2ccccc2Cl)cc1 | 12.6%
CCN1c2ccccc2-c2nc(SCC(=O)Nc3ccc(C)c(Cl)c3)ncc2S1(=O)=O | 5.6%
COCCNC(=O)C(=O)Nc1ccc(Br)cc1 | 13.9%
COc1cccc(/C=C2\Oc3cc(OCC(=O)N4Cc5ccccc5C[C@H]4C(=O)O)ccc3C2=O)c1 | ?
CCOC(=O)c1ccc(NC(=O)NCc2cccnc2)cc1 | 10.2%
Cn1ncc(Cl)c1C(=O)N1CCN(S(=O)(=O)c2ccc(F)cc2)CC1 | -2.2%
Cc1nc(-c2ccccc2)ccc1C(=O)O | 3.0%
CCCc1nc(N2CCN(C)CC2)c2sc(=S)n(-c3ccccc3)c2n1 | -9.1%
CCn1cc2nc(SCc3cc(C)ccc3C)n(Cc3ccc(C)cc3)c(=O)c2n1 | 6.6%
c1ccc(NCc2nc(-c3ccccc3)no2)cc1 | 6.9%
COc1ccc(/C=C2\N=C(SC)N(C)C2=O)cc1 | -15.4%

# Quoted from the entries so far (two entries):
smiles | VDR inhibitor
CCCc1nc(N2CCN(C)CC2)c2sc(=S)n(-c3ccccc3)c2n1 | -9.1%
CCn1cc2nc(SCc3cc(C)ccc3C)n(Cc3ccc(C)cc3)c(=O)c2n1 | 6.6%

# (listing goes on)
smiles | VDR inhibitor
Cc1ccccc1CNS(=O)(=O)c1c(C(=O)N2CCCCC2)c(C)n(C)c1C | -2.3%
Cc1ccc(C)c(NC(=O)CSc2nc(-c3ccccc3)c(C#N)c(=O)[nH]2)c1 | 7.7%
CC(=O)N1CCC(N(CCN2CCOCC2)C(=S)Nc2ccc(C)cc2C)CC1 | -21.7%
COC(=O)[C@]1(CC(C)C)N[C@H](c2ccc(SC3CCCCC3)c(OC)c2)[C@@H]2C(=O)N(C)C(=O)[C@@H]21 | -4.6%
COc1cccc(NC(=O)C/C(C)=N/NC(=O)c2ccccc2Cl)c1 | -16.7%

# Assay outcomes as filed in PubChem BioAssay.

# Only part of the results is shown; rates above refer to the full screens.
